# Screening data from PubChem BioAssay.
# YopH inh – YopH tyrosine phosphatase inhibitors, primary screen, biochemical, fluorescence Ex485/Em525; AID 898, 2007; inhibition, %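 (about 10 µM by stock and volumes)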; hit rate 0.16% among 140,000; YopH tyrosine phosphatase [Yersinia enterocolitica];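 active means inhibition of 50% or more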;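 further: controls were vehicle for no effect and minimum signal wells for full effect; inactives centre near -20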
# RecA intein inh – Mtb RecA intein splicing inhibitors, primary screen, biochemical, fluorescence, HTS; Protein RecA (Mycobacterium tuberculosis (strain ATCC 25618 / H37Rv)), P9WHJ3; cell-free RecA intein splicing; inhibition, %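 (about 9 µM by stock and volumes)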; hit rate 0.75% among 290,000; in the data active means inhibition above about 30%;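 further: 0% = vehicle wells and 100% = reference inhibitor control wells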
# Target sequence (P9WHJ3 whole entry, looked up): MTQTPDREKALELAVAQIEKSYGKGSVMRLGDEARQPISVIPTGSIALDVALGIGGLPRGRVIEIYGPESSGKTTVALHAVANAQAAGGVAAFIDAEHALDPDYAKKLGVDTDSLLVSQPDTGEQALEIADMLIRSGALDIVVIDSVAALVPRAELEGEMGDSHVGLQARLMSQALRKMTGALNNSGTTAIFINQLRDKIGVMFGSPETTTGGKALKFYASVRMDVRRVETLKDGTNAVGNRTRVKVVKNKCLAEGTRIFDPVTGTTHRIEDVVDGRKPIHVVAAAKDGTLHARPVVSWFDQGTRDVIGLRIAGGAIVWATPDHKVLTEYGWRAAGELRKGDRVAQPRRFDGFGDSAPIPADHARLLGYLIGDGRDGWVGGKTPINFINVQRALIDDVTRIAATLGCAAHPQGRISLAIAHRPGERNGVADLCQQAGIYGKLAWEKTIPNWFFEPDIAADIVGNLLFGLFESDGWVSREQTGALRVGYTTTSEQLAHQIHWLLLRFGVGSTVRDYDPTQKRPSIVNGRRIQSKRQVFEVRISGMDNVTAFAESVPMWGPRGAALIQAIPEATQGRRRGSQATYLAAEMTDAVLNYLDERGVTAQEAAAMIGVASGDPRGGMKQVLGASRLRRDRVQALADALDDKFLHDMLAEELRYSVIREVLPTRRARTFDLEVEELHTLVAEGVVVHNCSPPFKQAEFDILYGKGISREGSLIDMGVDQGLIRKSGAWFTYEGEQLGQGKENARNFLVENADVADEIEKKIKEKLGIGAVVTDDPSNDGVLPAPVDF
# Arbovirus anti – antivirals against arbovirus infection, primary screen, cell-based, full library, 10K replicate subset. arbovirus infection cell-based antiviral screen. inhibition, % at 10 µM. hit rate 0.37% among 200,000. AID 1251, 2008;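 active means inhibition from about 30%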;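 further: bluetongue infection of BSR cells; cell survival read as ATP light after 72 h; 0% = infected wells without compound and 100% = uninfected wells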
# Mtb growth – M. tuberculosis H37Rv growth inhibitors, H37Rv strain (AID 1626). M. tuberculosis H37Rv growth inhibition; higher % means a stronger effect. inhibition, % at 10 µM, or IC50 in µM where a hit was titrated. hit rate 0.95% among 220,000;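 active means confirmed in a dose series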;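 further: bacteria incubated seven days before Alamar blue readout; 0% = bacteria only wells and 100% = bacteria with antibiotic wells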
# Mtb betalactam – beta-lactam sensitization of Mtb H37Rv, H37Rv; hit rate 0.27% among 330,000; M. tuberculosis H37Rv growth with meropenem, percent inhibition; hits of this screen are not shown here; AID 434955, 2010; inhibition, % at 25 µM;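 active means about 74% or more and at least 40 points above the plate without the antibiotic, then above 30% in a dose series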;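 further: growth measured after seven days incubation then overnight dye step; 0% = bacteria only wells and 100% = bacteria with antibiotic; twin plates without the antibiotic show which effects depend on it; some results filed as inactive read as strong as hits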
# Numbers without * were called inactive; x = no result given.
molecule | YopH inh | Mtb betalactam | Arbovirus anti | RecA intein inh | Mtb growth
O=C(c1cc(C2CC2)nc2ccccc12)N1N=C(C(F)F)CC1(O)C(F)F (stereo not given) | -35 | 2 | 12 | 8.0 | 2%
C=C(C)c1cccc(C(C)(C)NC(=O)N2CCN(CC)CC2)c1 | -33 | -6 | -8 | 1.8 | 3%
CC[n+]1c(/C=C(\C)Nc2ccccc2)sc2ccccc21 | -21 | -6 | -7 | x | 7%
CCOc1ccc(C(=O)NC(=S)Nc2ccc(N3CCOCC3)c(Cl)c2)cc1[N+](=O)[O-] | 11 | 6 | 5 | -0.6 | 3%
COc1ccc(CN2C(=O)Cc3c2nc(N)c2c(N)nc(N4CCCCC4)c(C#N)c32)cc1 | 4 | 50 | -8 | -22 | -12%
COc1ccccc1/C=C(\NC(=O)c1ccccc1)C(=O)NCc1ccco1 | x | 1 | x | -2.2 | x
COc1ccc(NC(=O)CN2CCN(CC(=O)Nc3ccc(OC)c(OC)c3)CC2)cc1 | -48 | -4 | 1 | x | -1%

# Rewritten with each value named: entries from further up
> COc1ccc(CN2C(=O)Cc3c2nc(N)c2c(N)nc(N4CCCCC4)c(C#N)c32)cc1
  YopH inh: 4
  Mtb betalactam: 50
  Arbovirus anti: -8
  RecA intein inh: -22
  Mtb growth: -12%

> COc1ccccc1/C=C(\NC(=O)c1ccccc1)C(=O)NCc1ccco1
  YopH inh: x
  Mtb betalactam: 1
  Arbovirus anti: x
  RecA intein inh: -2.2
  Mtb growth: x

> COc1ccc(NC(=O)CN2CCN(CC(=O)Nc3ccc(OC)c(OC)c3)CC2)cc1
  YopH inh: -48
  Mtb betalactam: -4
  Arbovirus anti: 1
  RecA intein inh: x
  Mtb growth: -1%

# Part of the list above, with two lines to a compound:
# Screens in order – YopH inh	Mtb betalactam	Arbovirus anti	RecA intein inh	Mtb growth
- COc1ccccc1/C=C(\NC(=O)c1ccccc1)C(=O)NCc1ccco1
    x	1	x	-2.2	x
- CCOc1ccc(C(=O)NC(=S)Nc2ccc(N3CCOCC3)c(Cl)c2)cc1[N+](=O)[O-]
    11	6	5	-0.6	3%

# This is a subset. The share of hits here may be higher or lower than overall.
